Screening results as filed in PubChem.
Vaccinia stage: Vaccinia orthopox stage-specific inhibition | Vaccinia-infected cells, mCherry/Venus stage reporter fluorescence; hits give low values; some inactives read as strong as hits | activity change (mCherry), % (test concentration not listed) | hit rate 0.01% among 89,000;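 active means mCherry past -33% and 40 or more points under the early reporter, replicates agreeing; inconclusive means past -33% without that gap or agreement; tested in A549 cells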;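 further: scaled between vehicle wells and reference inhibitor wells; 23 nL library stock went into each well; one replicate is shown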
Vaccinia stage Venus: second read-out of Vaccinia stage, no call of its own (marks repeat the call); activity change (Venus), %; measured here: Venus reporter, other viral stage;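 negative = less Venus signal; first of two replicates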
An asterisk follows results filed as active; ? = inconclusive; / = not tested or not shown; & = joins results of further samples. A portion of the library; rates above refer to the full screens.

SMILES	Vaccinia stage	Vaccinia stage Venus
COc1ccc(CNC(=O)C[C@@H]2C[C@@H]3c4cc(NC(=O)C5CCC5)ccc4O[C@@H]3[C@@H](CO)O2)cc1	12	11
COc1ccc(NC(=O)Nc2ccc3c(c2)C(=O)N([C@@H](C)CO)C[C@@H](C)[C@H](CN(C)S(C)(=O)=O)OCCCC[C@@H](C)O3)cc1	12	4
CCO[C@@H]1OC(C(=O)NC2CC2)=C[C@H](c2ccccc2)[C@H]1CCCO	2	-2
C[C@@H]1CN([C@H](C)CO)C(=O)c2cc(C#CC3(O)CCCC3)cnc2O[C@H]1CN(C)S(=O)(=O)c1ccc(F)cc1	5	0
C[C@H]1CN([C@@H](C)CO)C(=O)Cc2cc(NS(=O)(=O)c3cn(C)cn3)ccc2O[C@H]1CN(C)Cc1ccc(C(F)(F)F)cc1	-10	1
CN1C(=O)c2cc(NC(=O)c3cnccn3)ccc2OC[C@@H]2O[C@@H](CC(=O)O)CC[C@H]21	0	-6
CN(C)CC(=O)N[C@H]1C=C[C@@H](CC(=O)O)O[C@@H]1CO	16	5
C[C@H]1CCCCO[C@@H](CN(C)S(=O)(=O)c2cn(C)cn2)[C@@H](C)CN([C@@H](C)CO)C(=O)c2cc(NC(=O)Nc3ccccc3)ccc2O1	11	10
O=C(NC1CCC1)[C@@H]1[C@@H](CO)[C@@H]2Cn3c(cccc3=O)[C@H]1N2CC1CCCCC1	7	8
C[C@H](CO)N1C[C@H](C)[C@@H](CN(C)C)OCc2ccccc2-c2c(n(C)c3ccccc23)C1=O	-4	-9
C[C@@H]1CN([C@@H](C)CO)C(=O)c2cc(Br)cnc2O[C@H]1CN(C)C(=O)Nc1ccc(F)cc1	19&20	10&6
COc1ccccc1C#Cc1ccc2c(c1)O[C@@H](CN(C)Cc1ccncc1)[C@H](C)CN([C@H](C)CO)S2(=O)=O	?	/

Molecules listed so far with four or more nitrogen atoms:
SMILES	Vaccinia stage	Vaccinia stage Venus
COc1ccc(NC(=O)Nc2ccc3c(c2)C(=O)N([C@@H](C)CO)C[C@@H](C)[C@H](CN(C)S(C)(=O)=O)OCCCC[C@@H](C)O3)cc1	12	4
C[C@H]1CN([C@@H](C)CO)C(=O)Cc2cc(NS(=O)(=O)c3cn(C)cn3)ccc2O[C@H]1CN(C)Cc1ccc(C(F)(F)F)cc1	-10	1
CN1C(=O)c2cc(NC(=O)c3cnccn3)ccc2OC[C@@H]2O[C@@H](CC(=O)O)CC[C@H]21	0	-6
C[C@H]1CCCCO[C@@H](CN(C)S(=O)(=O)c2cn(C)cn2)[C@@H](C)CN([C@@H](C)CO)C(=O)c2cc(NC(=O)Nc3ccccc3)ccc2O1	11	10
C[C@@H]1CN([C@@H](C)CO)C(=O)c2cc(Br)cnc2O[C@H]1CN(C)C(=O)Nc1ccc(F)cc1	19&20	10&6

New compounds follow:
SMILES	Vaccinia stage	Vaccinia stage Venus
O=C(C[C@@H]1CC[C@H](NC(=O)C2CC2)[C@H](CO)O1)NCCCN1CCOCC1	6	3
O=C(CN1CCOCC1)N[C@H]1CC[C@@H](CCn2cc(C3CCCC3)nn2)O[C@H]1CO	-2	5
O=C(O)C[C@@H]1C[C@@H]2c3cc(NS(=O)(=O)c4ccccc4)ccc3O[C@@H]2[C@@H](CO)O1	4	6
O=C([C@@H]1[C@@H](CO)[C@@H]2Cn3c(cccc3=O)[C@H]1N2CCC(F)(F)F)N1CCCCC1	23	5
C[C@@H]1CN([C@@H](C)CO)C(=O)c2cc(NS(=O)(=O)c3ccccc3)ccc2O[C@@H](C)CCCCO[C@H]1CN(C)C(=O)CCCN(C)C	38	10
COC(=O)C[C@@H]1CC[C@@H]2[C@H](COC[C@H](O)CN2S(=O)(=O)c2ccccc2C)O1	5	3
Cc1noc(C)c1NC(=O)Nc1ccc2c(c1)CC(=O)N([C@@H](C)CO)C[C@@H](C)[C@@H](CN(C)Cc1ccc(C(=O)Nc3ccccc3N)cc1)O2	-9	-11
CCC(=O)N1CCCCN2[C@H](CO)[C@H](c3ccc(C#CCOC)cc3)[C@H]2C1	24	6
C[C@H](O)C#Cc1cnc2c(c1)C(=O)N([C@H](C)CO)C[C@@H](C)[C@H](CN(C)C(=O)CN1CCOCC1)O2	17	18
O=C(c1ccccc1F)N1CC[C@@H]2[C@H]1c1cc(-c3ccc(F)cc3)ccc1N[C@@H]2CO	-18	-6
COc1cccc(C#Cc2ccc([C@@H]3[C@@H](C#N)N(C(=O)C4CCCCC4)[C@H]3CO)cc2)c1	-6	-5
CCCNC(=O)N[C@H]1C=C[C@@H](CC(=O)N2CCN(C)CC2)O[C@H]1CO	2	12
C[C@H](CO)N1C[C@H](C)[C@H](CN(C)Cc2ccc(Oc3ccccc3)cc2)Oc2ccc(NC(=O)C3CCCCC3)cc2CC1=O	-33	-21
COc1ccc(NC(=O)Nc2ccc3c(c2)C(=O)N([C@@H](C)CO)C[C@H](C)[C@@H](CN(C)S(=O)(=O)c2ccc(F)cc2)OCCCC[C@H](C)O3)cc1	-13	3
Cc1ccc(S(=O)(=O)Nc2ccc3c(c2)CC(=O)N([C@@H](C)CO)C[C@@H](C)[C@H](CN(C)C(=O)Nc2ccccc2)O3)cc1	-7	-5
CN(C)CCCNC(=O)C[C@H]1CC[C@H](NS(=O)(=O)c2ccccc2)[C@H](CO)O1	14	12
C/C=C/c1ccc2c(c1)O[C@H](CN(C)CC1CCOCC1)[C@@H](C)CN([C@@H](C)CO)S2(=O)=O	-28	-22
C[C@@H]1CN([C@H](C)CO)C(=O)c2cccc(NC(=O)Nc3ccc4c(c3)OCO4)c2O[C@H]1CN(C)C(=O)Nc1ccc2c(c1)OCO2	0	-5
O=C(C[C@@H]1C[C@H]2c3cc(NC(=O)C4CCOCC4)ccc3O[C@H]2[C@H](CO)O1)NCC1CC1	-4	-2
O=C(O)C[C@@H]1C[C@H]2c3cc(NC(=O)c4ccc5c(c4)OCO5)ccc3O[C@H]2[C@H](CO)O1	-7	-3
COc1ccc(NC(=O)N(C)C[C@@H]2Oc3c(NC(=O)c4nc5ccccc5s4)cccc3C(=O)N([C@H](C)CO)C[C@H]2C)cc1	9	11
C[C@H]1CN([C@@H](C)CO)S(=O)(=O)c2ccc(C#CC3(O)CCCC3)cc2O[C@@H]1CN(C)CC1CC1	-7	-5
COc1ccc(NC(=O)N2CC(=O)N3[C@H](C2)[C@H](c2ccc(Br)cc2)[C@@H]3CO)cc1	-12	-7
CCCC#Cc1cnc2c(c1)C(=O)N([C@@H](C)CO)C[C@@H](C)[C@@H](CN(C)C(=O)NC1CCCC1)O2	10	6
CC(=O)N(C)C[C@@H]1[C@@H](c2ccc(-c3ccccc3F)cc2)[C@H](CO)N1C(C)=O	-4	2
COc1ccc(CN(C)C[C@H]2Oc3c(NC(=O)c4cc(C)nn4C)cccc3C(=O)N([C@@H](C)CO)C[C@@H]2C)cc1	16	13
COc1ccccc1CN(C)C[C@H]1OCc2ccccc2-c2c(n(C)c3ccccc23)C(=O)N([C@@H](C)CO)C[C@H]1C	?	/
Cc1ccc(S(=O)(=O)N(C)C[C@H]2OCCCC[C@@H](C)Oc3ccc(NS(=O)(=O)c4cn(C)cn4)cc3C(=O)N([C@@H](C)CO)C[C@@H]2C)cc1	2	5
COc1ccc(CN(C)C[C@H]2OCCCC[C@H](C)Oc3ccc(NC(=O)CCC(F)(F)F)cc3C(=O)N([C@@H](C)CO)C[C@@H]2C)cc1	?	/
CC(C)C#Cc1ccc2c(c1)O[C@@H](CN(C)C(=O)c1ccccn1)[C@@H](C)CN([C@@H](C)CO)S2(=O)=O	-5	-6
CC(C)C(=O)Nc1ccc2c(c1)C(=O)N(C)[C@H]1CC[C@H](CC(=O)NC3CCCC3)O[C@H]1CO2	1	-7
COC(=O)C[C@H]1CC[C@H]2[C@@H](COc3ccc(NC(=O)c4cccc(OC)c4)cc3C(=O)N2C)O1	7	7
CC(C)NC(=O)Nc1ccc2c(c1)C(=O)N([C@H](C)CO)C[C@@H](C)[C@H](CN(C)S(=O)(=O)c1cn(C)cn1)O2	-1	-8
COCC#Cc1ccc2c(c1)O[C@@H](CN(C)CC1CCOCC1)[C@@H](C)CN([C@@H](C)CO)S2(=O)=O	17	-1
C[C@@H]1CN([C@H](C)CO)C(=O)c2cccc(NC(=O)C3CCCCC3)c2O[C@@H]1CN(C)C(=O)Nc1cccc2ccccc12	8	9
CN(C)c1ccc2c(c1)[C@H]1C[C@H](CC(=O)O)O[C@H](CO)[C@H]1O2	12	8
CCNC(=O)[C@H]1[C@H](CO)[C@H]2Cn3c(ccc(-c4ccc(F)cc4)c3=O)[C@H]2N1C(=O)Cc1cccnc1	0	5
COc1cccc(NC(=O)N(C)C[C@H]2Oc3ncc(/C=C/c4ccccc4)cc3C(=O)N([C@@H](C)CO)C[C@H]2C)c1	?	/
COc1ccc(S(=O)(=O)N[C@H]2CC[C@@H](CC(=O)NCCc3ccncc3)O[C@@H]2CO)cc1	12	11
CCOC(=O)N(C)C[C@H]1OCc2ccccc2-c2ccccc2C(=O)N([C@@H](C)CO)C[C@H]1C	16	12
COc1ccccc1S(=O)(=O)N[C@@H]1CC[C@@H](CCNC(=O)C2CCCCC2)O[C@H]1CO	13	18
N#C[C@H]1[C@H](c2ccc(-c3cccc(F)c3)cc2)[C@@H](CO)N1c1nc(-c2ccccc2)cs1	-10	1
COC(=O)C[C@@H]1CC[C@H](NS(=O)(=O)c2ccccc2F)[C@H](CO)O1	2	12
COc1ccccc1-c1cnc2c(c1)C(=O)N([C@H](C)CO)C[C@H](C)[C@@H](CN(C)Cc1ccc(C(=O)O)cc1)O2	17	8
C[C@@H]1CN([C@@H](C)CO)C(=O)Cc2cc(NC(=O)Cc3cn(C)c4ccccc34)ccc2O[C@H]1CN(C)Cc1ccc(-c2ccccc2)cc1	-4	-7
O=C(Nc1ccccc1)N[C@H]1CC[C@@H](CCNS(=O)(=O)c2ccccc2F)O[C@H]1CO	3	8
Cc1cccc(S(=O)(=O)N[C@@H]2CC[C@H](CCNC(=O)Nc3cc(F)ccc3F)O[C@H]2CO)c1	-5	-5
CNC(=O)C[C@@H]1CC[C@@H]2[C@@H](COc3ccc(NC(=O)c4ccc(F)c(F)c4)cc3C(=O)N2C)O1	2	16
CO[C@H]1CN(C)C(=O)c2ccc(NC(C)=O)cc2OC[C@@H](C)N(C(=O)C2CCC2)C[C@@H]1C	8	6
O=C(C[C@@H]1C[C@@H]2c3cc(NC(=O)Nc4ccccc4F)ccc3O[C@@H]2[C@H](CO)O1)NCc1ccccn1	3	1
O=S(=O)(N[C@H]1CC[C@H](CCn2cc(-c3cccnc3)nn2)O[C@@H]1CO)c1ccc(F)cc1	7	4
C[C@@H]1CCCCO[C@H](CN(C)S(=O)(=O)c2ccc(Cl)cc2)[C@@H](C)CN([C@@H](C)CO)C(=O)c2cc(NS(=O)(=O)c3cccs3)ccc2O1	-15	-11
COc1ccc(S(=O)(=O)N(C)C[C@H]2Oc3ncc(/C=C/c4ccccc4)cc3C(=O)N([C@H](C)CO)C[C@H]2C)cc1	-3	-2
O=C(C[C@@H]1C=C[C@H](NS(=O)(=O)c2ccc(F)cc2)[C@@H](CO)O1)NCc1ccncn1	4	4
COC(=O)[C@@H]1[C@@H](CO)[C@@H]2Cn3c(ccc(-c4ccc(F)cc4)c3=O)[C@H]1N2C(=O)c1ccccc1F	1	0
CN(C)C(=O)c1cccc(-c2ccccc2[C@H]2[C@H](C#N)N(C(=O)C3CCCC3)[C@H]2CO)c1	-2	6
C[C@@H]1CN([C@@H](C)CO)C(=O)c2cc(NC(=O)c3ccccc3)ccc2O[C@@H](C)CCCCO[C@@H]1CN(C)C(=O)c1ccccc1	2	-2
CCC(=O)N(C)C[C@H]1Oc2cc(C#C[C@@H](C)O)ccc2S(=O)(=O)N([C@@H](C)CO)C[C@H]1C	8	3
O=C(C[C@@H]1CC[C@@H](NC(=O)Nc2ccc3c(c2)OCO3)[C@@H](CO)O1)NCc1ccccc1	13	17
C[C@@H]1CN([C@@H](C)CO)C(=O)c2cc(-c3ccccc3)cnc2O[C@@H]1CN(C)C(=O)c1cccnc1	15	4

Taken from the listing (5 entries):
SMILES	Vaccinia stage	Vaccinia stage Venus
CO[C@H]1CN(C)C(=O)c2ccc(NC(C)=O)cc2OC[C@@H](C)N(C(=O)C2CCC2)C[C@@H]1C	8	6
O=C(C[C@@H]1C[C@@H]2c3cc(NC(=O)Nc4ccccc4F)ccc3O[C@@H]2[C@H](CO)O1)NCc1ccccn1	3	1
O=S(=O)(N[C@H]1CC[C@H](CCn2cc(-c3cccnc3)nn2)O[C@@H]1CO)c1ccc(F)cc1	7	4
C[C@@H]1CCCCO[C@H](CN(C)S(=O)(=O)c2ccc(Cl)cc2)[C@@H](C)CN([C@@H](C)CO)C(=O)c2cc(NS(=O)(=O)c3cccs3)ccc2O1	-15	-11
COc1ccc(S(=O)(=O)N(C)C[C@H]2Oc3ncc(/C=C/c4ccccc4)cc3C(=O)N([C@H](C)CO)C[C@H]2C)cc1	-3	-2

(listing goes on)
SMILES	Vaccinia stage	Vaccinia stage Venus
O=C(c1ccc(F)cc1)N1CC(=O)N2[C@H](CO)[C@H](c3ccc(-c4ccccc4F)cc3)[C@H]2C1	-21	-7
C[C@H](CO)N1C[C@H](C)[C@@H](CN(C)C)OCCCC[C@H](C)Oc2ccc(NC(=O)Nc3ccc4c(c3)OCO4)cc2C1=O	11	6
C[C@H](O)C#Cc1cnc2c(c1)C(=O)N([C@H](C)CO)C[C@@H](C)[C@@H](CN(C)CC1CCOCC1)O2	-1	5
CC(C)NC(=O)N(C)C[C@@H]1Oc2ncc(-c3cncnc3)cc2C(=O)N([C@@H](C)CO)C[C@H]1C	9	1
Cc1ccc(S(=O)(=O)N(C)C[C@@H]2Oc3c(NC(=O)C4CCCCC4)cccc3C(=O)N([C@H](C)CO)C[C@H]2C)cc1	12	-1
COCC#Cc1ccc([C@@H]2[C@@H](CO)N3CCCCN(S(=O)(=O)c4ccc(OC)cc4)C[C@H]23)cc1	-33	-35
C[C@@H]1CN([C@H](C)CO)C(=O)Cc2cc(NC(=O)Cc3cn(C)c4ccccc34)ccc2O[C@H]1CN(C)Cc1ccncc1	-2	-11
C[C@@H]1CN([C@@H](C)CO)C(=O)c2cc(NS(=O)(=O)c3cn(C)cn3)ccc2O[C@@H](C)CCCCO[C@@H]1CN(C)S(=O)(=O)c1ccc(Cl)cc1	15	1
